VACV mCherry inh = vaccinia inhibition (mCherry reporter); Potency, µM (doses to about 36.5 µM), inactives show top-dose activity change, negative = inhibition, most hits filed as inhibitors; Vaccinia virus mCherry reporter infection, fluorescence; about a quarter of the inactives have no number; 0.63% of 310,000 active; AID 720579; active = well fitted inhibition curve with a large enough effect; inconclusive = small, poorly fitted or top-dose-only effect; inactive = no such curve, though single readings can be large or run the other way; tested in A549 cells; further: nearly all actives have a fitted effect of over 35% in size; inactives centre near -10
VACV Venus inh = vaccinia inhibition (Venus reporter); Potency, µM (series often up to 36.5 µM), for the others: at the highest dose activity change, negative = inhibition, usual class: inhibitors; Vaccinia virus Venus reporter expression, fluorescence; 0.46% of 330,000 active; active means well fitted inhibition curve with a large enough effect; inconclusive means small, poorly fitted or top-dose-only effect; inactive means no such curve, though single readings can be large or run the other way; tested in A549 cells; further: nearly all actives have a fitted effect of over 30% in size; inactives centre near -10
Active calls of the source: *; i = inactive; ? = inconclusive; . = no result given; [ ] = dose if it differs, or a comment. On the % scale 0 is the no-effect control and ±100 the full control effect; potency means the concentration at half of the fitted maximal effect.

SMILES	VACV mCherry inh	VACV Venus inh
COC(=O)C1=C(C)N(CCCC(=O)O)C(=O)NC1c1cccc(OC)c1 (stereo not given)	i	1%
CCn1c(CCCNC(=O)c2cccs2)nc2ccccc21	-5%	1%
COc1ccc(/C=N/n2c(COc3ccccc3)n[nH]c2=S)cc1OC	-7%	-2%
N#CCC(=O)Nc1ccc(C(=O)OCC(=O)NC(=O)NCc2ccco2)cc1	-13%	-3%
O=C1CCn2nc(-c3ccc(Cl)cc3)cc2N1	7%	6%
Cc1cccc(Nc2nnc(SCC(=O)Nc3ncc(C(F)(F)F)cc3Cl)s2)c1C	-4%	-15%
Oc1[nH]c2ccccc2c1OCc1ccncc1	.	6%
O=C(NC1CCCC1)C(c1ccncc1)N(Cc1ccccc1)C(=O)Cc1cccs1 (stereo not given)	-11%	-14%
COc1cccc2cc(C(C)N(CCCN3CCOCC3)C(=S)Nc3ccc(C)cc3)oc12 (stereo not given)	-28%	5%
COc1ccc(Cl)cc1N(CC(=O)NC1CC2CCC1C2)S(=O)(=O)c1ccccc1 (stereo not given)	-4%	-14%
COc1ccc(C(=O)N2CCN(c3ccccc3)CC2)cc1S(=O)(=O)NC1CC1	i	-17%
COc1ccc(N(C(=O)c2ccncc2)S(=O)(=O)c2ccccc2)cc1	-2%	-9%
N#Cc1ccc(OCC(=O)Nc2cc(S(=O)(=O)N3CCOCC3)ccc2N2CCOCC2)cc1	-14%	1%
O=C(O)c1c(F)c(F)cc2ccccc12	-1%	-3%
Cc1ccc(SCC(=O)N(C)CC(=O)Nc2cccc(F)c2)c(C)c1	-27%	-24%
Cc1cc2oc(C(=O)NCc3ccncc3)c(C)c2cc1C	-13%	?
CCCCCCc1cc2cc(-c3nnc(-c4ccccc4OC)o3)c(=O)oc2cc1O	?	-15%
CC(=O)c1ccc(C(=O)N2CCCC(Nc3ccccc3)C2)s1 (stereo not given)	-18%	-10%
CN(C)c1nn2c(-c3ccccc3)nnc2o1	20%	-1%
CC(=O)OC[C@@H]1CN(Cc2ccccc2)C[C@H](n2cnc3c(N(C)C(C)C)ncnc32)O1	8%	-2%
CCOC(=O)N1CCN(C(=O)COC(=O)CSc2cc(C)c(Br)cc2C)CC1	-19%	-7%
ClC1(Cl)CC1CSc1nc2ccccc2[nH]1 (stereo not given)	-14%	-10%
Cc1ccc(C(=O)Oc2ccc3c(c2)ncn3C)cc1	-10%	-8%
Cc1csc(C2=C(O)CN(CCc3ccccc3)C2=N)n1	-11%	-4%
Cc1ccc2c(=O)n3c(nc2c1)C(Cc1ccc(O)cc1)NC(=O)c1cc2ccccc2cc1-3 (stereo not given)	-18%	?

(list continues)
SMILES	VACV mCherry inh	VACV Venus inh
Nc1nc(-c2ccc(Br)s2)c(Br)s1	?	-15%
CCOc1c2ccc(C(=O)NCc3cc(C(F)(F)F)cc(C(F)(F)F)c3)cc2nn1C	-7%	-19%
Cc1nnc(SCc2nnc(-c3ccccc3Br)o2)s1	0%	1%
CC(NCc1ccc(Cl)cc1Cl)C(O)c1ccccc1 (stereo not given)	-3%	-14%
CCOc1cc(/C=C/C(=O)OCC(=O)N(CC)C2CCS(=O)(=O)C2)cc(Cl)c1OC (stereo not given)	-21%	-5%
CC(C)N(C(=O)CSc1nn2c(=O)c(C(C)(C)C)nnc2s1)c1ccccc1	.	-10%
C=C(C)C(=O)Nc1cccc(C2=NOC3(C2)C[C@H](C(N)=O)N(C(=O)C(c2ccccc2)c2ccccc2)C3)c1 (stereo not given in full)	i	?
Cc1ccc(CNC(=O)COC(=O)c2ccccc2OCC(=O)Nc2ccc(Br)cc2)cc1	i	-14%
O=C(NN1C(=O)C2C3C=CC(C3)[C@H]2C1=O)c1cccnc1 (stereo not given in full)	i	-6%
COCCN(CC1CCCN(C2Cc3ccccc3C2)C1)C(=O)c1cccs1 (stereo not given)	i	-6%
CCc1c(O)nc(SCC(=O)NC(C)(C)C)n(-c2ccccc2)c1=O	-11%	2%
Cc1cc(NCc2ccccc2Cl)n2nnnc2n1	.	-17%
CCOc1ccc(N2CC(C(=O)Nc3cccc(S(=O)(=O)N4CCCCC4)c3)CC2=O)cc1 (stereo not given)	-8%	-22%
CCCCNC(=O)C1(C)CCCCN1Cc1ccc(-c2ccccc2)cc1 (stereo not given)	i	-15%
Cn1c(C(=O)N2CCN(Cc3ccccc3)CC2)cc2c(=O)n(C)c3ccccc3c21	?	-16%
CCNC(=O)COc1cc(C)c(Br)c(C)c1	i	-4%
COc1ccc(NC(=S)N2CCN(C(c3ccccc3)c3ccccc3)CC2)c(OC)c1	-25%	?
CN1C(=O)/C(=C/C=C2\SCCN2C)N(C)C1=S	-3%	7%
COc1ccc2cc[nH]c2c1	i	-8%
CCC(=O)N(Cc1cc2c(C)cc(C)cc2[nH]c1=O)C1CCCCC1	.	-26%
Cc1ccc2c(c1)c1nnc(SCC(=O)Nc3cccc(Cl)c3C)nc1n2CC(=O)O	i	-7%
CCCSc1ccc([C@@H]2[C@@H]3C(=O)N(CC)C(=O)[C@@H]3[C@]3(C(=O)OC)CCCCN23)cc1	i	?
CC(=O)OC1CC[C@]2(C)C(=CCC3C4CCC(C(C)CCCC(C)C)[C@]4(C)CCC32)C1 (stereo not given in full)	-3%	-7%
COc1ccc(-n2c(C(C)(C)C)csc2=Nc2c(C)n(C)n(-c3ccccc3)c2=O)cc1	-1%	-3%
O=C(C1CCC1)N1CCN(S(=O)(=O)c2cccc(F)c2)CC1	-13%	-4%

Further structures:
SMILES	VACV mCherry inh	VACV Venus inh
COc1ccc(OC)c(S(=O)(=O)Nc2ccccc2C)c1	-13%	-2%
CN(Cc1nc(Cc2ccccc2F)no1)Cc1cccc2ncccc12	-5%	-6%
CCOCCn1c(=NC(=O)c2ccc(S(=O)(=O)N3CCOCC3)cc2)sc2cc(S(N)(=O)=O)ccc21	i	-24%
CCCCCCCNC(=O)C1(CC2CC(c3ccc(Cl)cc3)=NO2)CCN(C(=O)Cc2ccc(F)cc2)CC1 (stereo not given)	-5%	?
CC(=O)Nc1ccc(S(=O)(=O)Nc2ccn(Cc3ccccc3Cl)n2)cc1	-8%	-9%
Cc1ccc(C(=O)N/C(=C\c2ccc(C(C)C)cc2)C(=O)NCCCN2CCOCC2)cc1	-13%	-11%
Cc1cc(Cl)ccc1N=c1ssnc1Cl	-30%[1.46 µM]	?
CCc1ccc(NC(=O)CSc2nccn(-c3ccc4c(c3)OCCO4)c2=O)cc1	i	-18%
O=c1c(S(=O)(=O)c2ccccc2)cn(Cc2ccccc2)c2cc(N3CCCC3)c(F)cc12	0%	2%
COc1cc2[nH]c(=O)c(C(=O)NCc3ccccc3Cl)c(O)c2cc1OC	i	-10%
COc1ccc(C(=O)NC(=S)NNC(=O)c2cccc(C)c2)cc1	?	-3%
CCN(CC)C(=O)[C@H]1C[C@H](CC(=O)NCCCN(C)C)C(=O)N2CCc3c([nH]c4ccc(Cl)cc34)[C@]12C	i	?
CCn1c(=N)n(CC(=O)c2cccc([N+](=O)[O-])c2)c2ccccc21	-29%	-19%
Cc1cccc(NC(=O)CN(C)S(=O)(=O)c2ccccc2)n1	.	5%
Nc1nonc1C(=O)N/N=C/c1ccc([N+](=O)[O-])o1	?	?
CN(C)c1cccc(C(=O)OC(C(=O)Nc2ccc([N+](=O)[O-])cc2Br)c2ccccc2)c1 (stereo not given)	-11%	-9%
COc1cc(C2c3cc4c(cc3C(O)C3COC(=O)C23)OCO4)cc(OC)c1OC (stereo not given)	?	?
N#C/C(=C\c1cccs1)Sc1nc2ccccc2s1	-27%	-12%
CCOc1ccc(N(C)C(=O)CCc2nnc3ccc(N4CCC5(CC4)OCCO5)nn23)cc1	-19%	-21%
O=C1CC(=O)N(Cc2ccccc2)C(=S)N1	-3%	21%
Cc1cc2c(cc1NC(=O)c1ccc(C(C)(C)C)cc1)n(C)c(=O)c(=O)n2C	-15%	-2%
CCc1nc(N2CCN(C(=O)c3ccco3)CC2)c2oc3ccccc3c2n1	?	?
Cn1c(SCC(=O)NC(=O)c2cccc([N+](=O)[O-])c2)nnc1-c1ccc(F)cc1	-15%	-9%
CC(=O)C1(O)CCC2C3CCC4=C(Cl)C(=O)CCC4(C)C3CCC21C (stereo not given)	?	-24%
CC1CC(C)CN(S(=O)(=O)c2ccc(C(=O)N3CCN(c4ccccc4)CC3)cc2)C1 (stereo not given)	-14%	0%

Continued, overlapping the part above by three compounds.
SMILES	VACV mCherry inh	VACV Venus inh
Cn1c(SCC(=O)NC(=O)c2cccc([N+](=O)[O-])c2)nnc1-c1ccc(F)cc1	-15%	-9%
CC(=O)C1(O)CCC2C3CCC4=C(Cl)C(=O)CCC4(C)C3CCC21C (stereo not given)	?	-24%
CC1CC(C)CN(S(=O)(=O)c2ccc(C(=O)N3CCN(c4ccccc4)CC3)cc2)C1 (stereo not given)	-14%	0%
Cc1ccc2c(c1)C1CN(C)CCC1N2C(=O)c1ccc(Br)o1 (stereo not given)	.	-15%
O=C(CSc1nccc(=O)[nH]1)Nc1ccc2c(c1)OCCO2	-10%	-12%
COc1ccccc1NC(=O)CCC(=O)OCc1ccc(Cl)cc1	i	-8%
O=C(CCc1ccccc1)NC1(Cc2ccccc2)CCN(CCCc2ccccc2)C1=O (stereo not given)	i	?
Cc1cc(/C=C2\SC(N)=NC2=O)c(C)n1-c1ccc(F)cc1	-11%	-11%
CCc1ccc(NC(=O)C(=O)NCC(c2ccc3c(c2)OCO3)N2CCN(C)CC2)cc1 (stereo not given)	-13%	-10%
Cc1cc(C)cc(NC(=O)CN2C(=O)CCc3cc(S(=O)(=O)N4CCCCC4)ccc32)c1	?	-28%
Cc1c(CN2CCc3c([nH]c4ccccc34)C2C2CCCCC2)cnn1C (stereo not given)	?	-29%
O=C(COC(=O)C1(c2ccc(F)cc2)CCCC1)NCc1ccco1	4%	5%
O=C(NCCOc1ccccc1)c1ccccc1Cl	-8%	-7%
CCN(CC)C(=O)CN1C(=O)C2(OCC(C)(c3ccccc3)CO2)c2ccccc21 (stereo not given)	-9%	-16%
C=CCOc1cccc(C2C(C(=O)c3ccco3)=C(O)C(=O)N2Cc2cccnc2)c1 (stereo not given)	-8%	3%
CC1CCCN(CCCNC(=O)C2CCCN(c3ncnc4c3nc3n4CCCCC3)C2)C1 (stereo not given)	-15%	-15%
Cc1ccc(NC2CCCN(C(=O)c3cccnc3)C2)cc1C (stereo not given)	?	-8%
COc1cc(OC)nc(N/N=C(\c2ccccc2)c2ccncc2)n1	-11%	0%
C#CCOCCOCCOCCNc1nc(N2CCN(C(=O)Cn3cc(CC(C)O)nn3)CC2)nc(N2CCN(C(=O)[C@H]([C@@H](C)O)n3cc(CCCCN)nn3)CC2)n1 (stereo not given in full)	i	10%
CCNC(=S)NC1CC2CCC(C1)N2Cc1ccccc1 (stereo not given)	-21%	-23%
CCc1ccccc1NC(=O)Cn1nnc(C(=O)NCc2cccc(OC)c2)c1N	-17%	-26%
CN1C(=O)[C@H]2[C@@H](c3ccc(C(F)(F)F)cc3)N[C@]3(CCCN(Cc4ccc(Br)cc4)C3=O)[C@H]2C1=O	-29%	?
O=C(Oc1ccc(N(C(=O)c2ccncc2)S(=O)(=O)c2ccc(F)cc2)cc1)c1ccncc1	-19%	-5%
O=C(NCCS(=O)(=O)N1CCCC1)c1ccccc1	i	-9%
Cc1cccc(CS(=O)(=O)Cc2ccc(C(=O)NCc3ccc(F)cc3)o2)c1	-23%	-21%
O=C(C[C@H]1CC[C@@H](NC(=O)Nc2ccc3c(c2)OCO3)[C@@H](CO)O1)NCc1ccccc1	-5%	-3%
O=C(COc1ccc(Br)cc1)NCCNC(=O)c1ccncc1	i	3%
O=C(COc1ccccc1Cl)N1CCN(c2ccc([N+](=O)[O-])c(N3CCCCC3)c2)CC1	-15%	-6%

Further records follow:
SMILES	VACV mCherry inh	VACV Venus inh
COCCCNC(=O)C[C@H]1C[C@H](C(=O)N2CCOCC2)[C@@]2(C)c3[nH]c4ccc(Cl)cc4c3CCN2C1=O	-29%	-16%
O=C(CCSc1nc(-c2ccco2)cc(C(F)(F)F)n1)NCCc1ccccc1	.	-12%
COC(=O)c1ccc(CSC(=N)N)o1	-19%	-15%
COc1ccc(N2CCN(C(=O)COC(=O)c3cccc(OC)c3O)CC2)cc1	i	0%
COC(=O)CC(NC(=O)CN1CCN(c2ccc(F)cc2)CC1)c1cccc(F)c1 (stereo not given)	-3%	-20%
CCOC(=O)c1cc(C)nc(S(C)(=O)=O)c1C#N	i	-24%
COc1ccc(OCCN(C)CC(=O)Nc2ccccc2SC)cc1	3%	3%

Compounds above with a furan ring, fused or not (11):
SMILES	VACV mCherry inh	VACV Venus inh
N#CCC(=O)Nc1ccc(C(=O)OCC(=O)NC(=O)NCc2ccco2)cc1	-13%	-3%
COc1cccc2cc(C(C)N(CCCN3CCOCC3)C(=S)Nc3ccc(C)cc3)oc12 (stereo not given)	-28%	5%
Cc1cc2oc(C(=O)NCc3ccncc3)c(C)c2cc1C	-13%	?
Nc1nonc1C(=O)N/N=C/c1ccc([N+](=O)[O-])o1	?	?
CCc1nc(N2CCN(C(=O)c3ccco3)CC2)c2oc3ccccc3c2n1	?	?
Cc1ccc2c(c1)C1CN(C)CCC1N2C(=O)c1ccc(Br)o1 (stereo not given)	.	-15%
O=C(COC(=O)C1(c2ccc(F)cc2)CCCC1)NCc1ccco1	4%	5%
C=CCOc1cccc(C2C(C(=O)c3ccco3)=C(O)C(=O)N2Cc2cccnc2)c1 (stereo not given)	-8%	3%
Cc1cccc(CS(=O)(=O)Cc2ccc(C(=O)NCc3ccc(F)cc3)o2)c1	-23%	-21%
O=C(CCSc1nc(-c2ccco2)cc(C(F)(F)F)n1)NCCc1ccccc1	.	-12%
COC(=O)c1ccc(CSC(=N)N)o1	-19%	-15%

Assay outcomes: PubChem, National Center for Advancing Translational Sciences (NCATS)
